ClpP mod: qHTS Assay for Activators of ClpP; ATP-dependent Clp protease proteolytic subunit (Bacillus subtilis (strain 168)), P80244; hit rate 1.9% among 340,000; AID 651965, 2013; Potency, µM (top dose mostly 57.5 µM), inactives show at the top dose activity change, negative = active; purified B. subtilis ClpP, FRET peptide cleavage, 20 min; active = well fitted falling curve with a large enough effect; inconclusive = small, poorly fitted or top-dose-only effect; inactive = no such curve, though single readings can be large or run the other way; also: potency is read from the fitted curve at half-maximal effect; the source files actives as falling curves though it sought activators and does not explain the sign; nearly all actives have a fitted effect of over 65% in size; many hits overshoot -100%
Target sequence (P80244 whole entry, looked up): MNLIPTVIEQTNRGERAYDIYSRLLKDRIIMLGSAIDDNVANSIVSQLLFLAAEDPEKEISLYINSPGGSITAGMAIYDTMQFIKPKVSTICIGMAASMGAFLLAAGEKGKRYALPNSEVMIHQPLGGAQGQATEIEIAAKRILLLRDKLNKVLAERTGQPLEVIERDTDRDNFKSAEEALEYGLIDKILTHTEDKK
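FRET quenching reversal measured ClpP activation: 10 microg/mL B. subtilis ClpP at pH 8 with the FRET-FV decapeptide, read at 430 nm after 320 nm excitation. The 20-min minus 0-min signal was scaled between DMSO/no-enzyme wells and ADEP (5.8 microM final).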
Sfp inh: qHTS Assay for Inhibitors of Bacillus subtilis Sfp phosphopantetheinyl transferase (PPTase); AID 1490, 2009; Biochemical Sfp PPTase activity, qHTS; Potency, µM, for inactives: max response, negative = inhibition, usual class: inhibitors; 4'-phosphopantetheinyl transferase ffp (Bacillus subtilis), Q9F4F7; hit rate 3.5% among 310,000; active = well fitted inhibition curve with a large enough effect; inconclusive = small, poorly fitted or top-dose-only effect, or another doubt; inactive = no such curve, though single readings can be large or run the other way;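 also: the enzyme is Sfp with the accession as filed and its product quenches rhodamine fluorescence; potency is read from the fitted curve at half-maximal effect; 0% = enzyme reaction without inhibitor and -100% = no enzyme wells; top concentration of the series not given in the record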
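Compounds were incubated with enzyme (final 15 nM) for 15 min at room temperature before substrate addition started the reaction. Fluorescence at 525 nm excitation, 598 nm emission was recorded immediately and after 30 minutes.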
D2 PAM: Beta-Arrestin HTS for Positive Allosteric Modulators of the Human D2 Dopamine Receptor: Potentiators | DiscoveRx D2 beta-arrestin cells, luminescence, 90 min; 100% = 57 uM dopamine signal | D(2) dopamine receptor (Homo sapiens), P14416 | hit rate 0.23% among 360,000 | potentiation, % (concentration not given with the values); active = potentiation of 50% or more; inconclusive = 30% to 50%; inactive = 30% or less;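 also: compound concentration not given in the record; tested on top of an EC20 dose of dopamine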
Target sequence (P14416 whole entry, looked up): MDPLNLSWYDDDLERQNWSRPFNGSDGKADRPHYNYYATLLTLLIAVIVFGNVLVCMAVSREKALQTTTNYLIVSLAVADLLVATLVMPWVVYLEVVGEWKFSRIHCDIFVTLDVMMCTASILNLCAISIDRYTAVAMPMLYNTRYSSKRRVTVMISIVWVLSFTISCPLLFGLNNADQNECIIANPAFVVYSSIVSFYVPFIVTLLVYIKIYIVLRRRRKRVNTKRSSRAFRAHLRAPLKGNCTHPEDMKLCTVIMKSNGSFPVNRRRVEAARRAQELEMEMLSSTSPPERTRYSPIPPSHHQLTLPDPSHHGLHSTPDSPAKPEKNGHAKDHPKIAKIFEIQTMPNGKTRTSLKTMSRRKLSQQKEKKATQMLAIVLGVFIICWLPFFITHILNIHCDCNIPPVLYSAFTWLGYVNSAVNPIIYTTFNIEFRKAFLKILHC
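PathHunter beta-arrestin assay in DiscoveRx D2 cells. Compounds were added with an EC20 of dopamine (50 nM final) for 90 min at 37 deg C. Luminescence was read 1 h after detection reagent, with 57 uM dopamine as the EC100 control.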
TRPV1 potentiator: HTS Assay for Compounds that Act as Potentiators of the Vanilloid Receptor 1 | potentiation, % at 8.33 µM | TRPV1-expressing cells, Fluo-8 calcium influx, capsaicin EC20 potentiation; host cell line not named in the record; control for the full effect not named in the record | hit rate 0.02% among 320,000 | AID 540277, 2011; active means potentiation above 80%; inconclusive means 30% to 80%; inactive means below 30%; also: 0% is about no effect
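Fluo-8 calcium influx in TRPV1-expressing cells, kinetic read (ex 480/em 520 nm). Compound added and read 3 min for agonist activity, followed by capsaicin at EC20 final and 2 min further read for enhancement.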
gsp antag: qHTS for Antagonists of gsp, the Etiologic Mutation Responsible for Fibrous Dysplasia/McCune-Albright Syndrome: qHTS; Potency, µM (highest dose often 76.9 µM), for the others: top-dose activity change, negative = inhibition, actives largely listed as inhibitors; gsp-mutant cells, cAMP HTRF, 30 min; control for the full effect not named in the record; AID 624288, 2012; hit rate 0.4% among 340,000; active = falling curve of any shape with a large fitted effect; inconclusive = falling curve, mostly with a smaller effect; inactive = flat or rising curve; cell line not stated here;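 also: intracellular cAMP measured with PDE inhibitor Ro 20-1724 present during compound exposure; potency is read from the fitted curve at half-maximal effect; % is scaled to controls: 0 for no effect and ±100 for the full control effect; nearly all actives have a fitted effect of over 65% in size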
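Cells, 2000/well, grown 16–24 h in DMEM 10% FBS with 0.5 mg/ml G418, then compounds plus […] (300 uM addition stock), 30 min at 37C. cAMP read by HTRF (cAMP-d2 and anti-cAMP antibody-K in lysis buffer) after 30 min RT.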
gsp agonist: qHTS for Agonist of gsp, the Etiologic Mutation Responsible for Fibrous Dysplasia/McCune-Albright Syndrome: qHTS | gsp mutant cells, cAMP HTRF, 30 min; control for the full effect not named in the record | Potency, µM (series often up to 76.9 µM), inactives show at the top dose activation (cAMP increase), usual class: activators | hit rate 0.13% among 340,000; active = well fitted activation curve with a large enough effect; inconclusive = small, poorly fitted or top-dose-only effect, or another doubt; inactive = no such curve, though single readings can be large or run the other way; cell line not stated here;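 also: phosphodiesterase inhibitor Ro 20-1724 added with compounds to block cAMP breakdown; potency is read from the fitted curve at half-maximal effect; nearly all actives have a fitted effect of over 60% in size; about a fifth of the inactives were tested at one dose only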
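Cells stably selected in G418 were plated at 2000/well, grown 16-24 hr, then given compounds in DMSO with the PDE inhibitor […] (300 uM solution added) for 30 min at 37C; cAMP was read by HTRF.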
Menin MLL FP FL: qHTS Assay for Inhibitors Targeting the Menin-MLL Interaction in MLL Related Leukemias: Competition With Fluorescein Labeled MLL-derived Peptide; FP activity change, % at 61.4 µM; Fluorescence polarization, fluorescein-MLL peptide displacement from menin; 290,000 tested, under 10 active; inconclusive = falling polarisation curve, or a change in total fluorescence; inactive = total fluorescence flat and polarisation flat or rising; no compound was filed as active; the % refers to the polarisation; negative = inhibition;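 also: % of control where 0% means no effect; inhibitors lower the polarisation; unlabelled MLL peptide was the positive control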
* marks the source's active call; other numbers are inactive results; u = inconclusive; x = no result given; & = joins results of further samples; [ ] = remark or other dose. Hits appear at their usual frequency (roughly 5.1% active in at least one column).

SMILES	ClpP mod	Sfp inh	D2 PAM	TRPV1 potentiator	gsp antag	gsp agonist	Menin MLL FP FL
N=c1c2ccccc2nc2n1CCCCC2	-7.0%	x	-11	x	x	u	x
FC(F)Sc1ccc(NC(=S)NC2CCC(NC(=S)Nc3ccc(SC(F)F)cc3)CC2)cc1 (stereo not given)	-1.4%	5%	4	-11	7%	-53%[inhibitor]	-2.0
O=C(O)CSc1cccnc1Sc1ccc(Cl)cc1	-3.4%	x	-6	x	-15%	-2%	x
O=C(NC(=S)Nc1ccc(CN2CCOCC2)cc1)c1ccc([N+](=O)[O-])cc1	-1.2%	50µM*	-6	-2	-15%	-25%	2.0
Cc1cccc(-n2ncc3c(NCCN4CCOCC4)ncnc32)c1	-26%	8%	6	-4	3%	-3%	6.8
COc1cc(/C=N/NC(=O)Cc2nnc(NC(=O)c3ccccc3)s2)ccc1O	x	-6%	1	15	4%	-11%	23
CN(O)/C=c1/ccc2c(n1)C(=O)C=CC=2	0.4%	-9%	-19	12	-18%	u	4.7
Cc1cccc(-n2c(SCC(=O)N3CCCC3)nc3n[nH]c(C)c3c2=N)c1	u	18%	11	u	30%[activator]	u	-4.5
Cc1noc2ncnc(Oc3ccccc3Cl)c12	-1.2%	u	4	0	2%	15%	-0.3
O=C(CSc1nnc(NC(=O)c2c(F)cccc2F)s1)NC1CCCC1	x	-8%	-2	29	-10%	-4%	0.8
S=C(Nc1ccccc1Cl)N(Cc1ccccc1)Cc1cccnc1	x	11%	4	-9	-13%	-3%[15.4 µM]	0.4
O=C(CSc1cc([N+](=O)[O-])cc(S(=O)(=O)Cc2ccccc2)c1)NC1CC1	-0.7%	u	u	13	5%	21%	3.1
C/C(=N/NS(=O)(=O)c1ccc(Br)cc1)c1ccc(C)o1	-2.9%	-3%	-5	16	-1%	u	4.2
CCCCn1c(=NC(=O)c2ccco2)c(C(=O)OCC)cc2c(=O)n3ccccc3nc21	-4.4%	-7%	-12	6	-19%	-44%[inhibitor]	0.9
O=C(CSc1ccc(-c2ccco2)nn1)Nc1ccccc1F	-11%	32µM*	1	9	-20%	1%	x
COC(=O)c1sccc1NC(=S)N1CCN(c2ccccc2)CC1	-0.5%	1%	-7	5	-9%	22%[15.4 µM]	3.4
COc1ccc(OCC(=O)N2N=C(C)CC2(O)C(F)(F)F)cc1 (stereo not given)	x	21%	-1	6	-5%	-14%	-1.1
CC1(C)CC(=O)C2=C(C1)OC1=C(C(=O)CC(C)(C)C1)C2c1ccccc1	-0.3%	2%	-7	1	-3%	-39%[inhibitor]	1.6
COc1ccc(Cl)cc1C(=O)NNC(=S)NC(=O)c1ccc(F)c(F)c1	x	9%	-7	-11	-12%	-45%[inhibitor]	0.7
COC(=O)c1ccc2c(CCO)c[nH]c2c1	4.7%	8%	1	-3	10%	6%	1.5
CC(C)CN(C(=O)C(c1ccccc1)c1ccccc1)c1c(N)n(CC(C)C)c(=O)[nH]c1=O	x	6%	1	-2	x	7%[15.4 µM]	3.1
c1ccc(-c2nnc(-c3ccccn3)s2)nc1	x	89µM*	-1	-2	2%	17%	-3.0
O=[N+]([O-])c1ccc(CN2CCCCCC2)s1	-1.9%	u	-7	-4	3%	2%	3.5
CCSc1ncnc2sc3c(c12)CCC3	-21%	6%	1	-8	3%	24%	-0.2
CSCC[C@H](NC(=O)Nc1cccc(Br)c1)C(=O)O	x	20%	-5	-3	5%	-3%[15.4 µM]	-0.1
Nc1nc2ccc(S(=O)(=O)c3ccc4nc(N)sc4c3)cc2s1	-40%&5.0%	0%	-15	-4	2%	24%	2.3
CC1CC(C)(C)NC(=S)N1CCC(=O)N1CCc2ccccc2C1 (stereo not given)	-4.1%	-20%	-5	5	0%	-2%[15.4 µM]	-1.4
COc1ccc(S(=O)(=O)N(CC(=O)Nc2cc(C)on2)Cc2ccccc2)cc1	-3.9%	3%	-4	-11	-11%	-59%[inhibitor]	2.6
COC(=O)c1cccc(C(=O)Nc2ccc(F)cc2)n1	-1.2%	15%	-4	20	-4%	-47%[inhibitor]	-2.5
COc1cccc(CNC(=O)c2cc3c(cc2Cl)N2CCCCCC2=NS3(=O)=O)c1	-0.9%	x	4	u	-1%	0%[15.4 µM]	x
CCS(=O)(=O)c1nc(S(=O)(=O)c2ccc(C)cc2)c(NCCCn2ccnc2)s1	-1.3%	10%	-2	-1	11%	u	x
CN(Cc1ccccc1)C(=O)CCC(=O)N(C)Cc1ccccc1	-4.5%	18%	-12	13	-7%	-3%	5.3
CC(C)N(CCC#N)C(=O)Nc1ccc2c(c1)CCO2	-2.1%	14%	-2	x	1%	-1%[15.4 µM]	-0.6
Cc1ccccc1CN1CCNC(=O)C1CC(=O)O (stereo not given)	-1.2%	1%	-6	7	4%	4%	-3.0
COc1ccc(/C=N/NC(=O)CNC(=O)c2ccc3c(c2)OCCO3)cc1OC	x	-6%	-4	-2	-17%	-18%[15.4 µM]	3.9
COc1ccccc1/C=C\C=N\NC(=O)c1ccco1	x	-6%	0	2	-2%	-8%[15.4 µM]	5.2
CCN(CC)C(=O)c1cccc(NC(=O)c2cc(C3CC3)nc3c2cnn3C(C)C)c1	-3.9%	x	2	-4	-14%	20%	x
Cn1cc(C(=O)NS(=O)(=O)Nc2ccc(Br)cn2)c2ccccc21	x	22%	0	-9	6%	7%	-0.7
O=c1ccc(-c2nc3ccccc3n2Cc2ccc(Cl)cc2)c[nH]1	4.2%	0%	-4	-7	-18%	-1%[15.4 µM]	2.1
COc1cc(OC)c(C2=NOC(C(=O)Nc3ccc4c(c3)OCO4)C2)cc1Cl (stereo not given)	1.7%	-27%	-2	1	2%	-6%[15.4 µM]	-0.7
COC(=O)C1[C@H]2SC(C)(C)C(C(=O)OC)N2C(=O)N1Cc1nc2ccccc2s1 (stereo not given in full)	-4.7%	9%	-11	5	-5%	-17%	x
COC(=O)C1(CCSC)NC(c2ccc(O)cc2)C2C(=O)N(c3ccc(F)cc3)C(=O)C21 (stereo not given)	x	30%	1	-5	3%	1%	-1.2
NC(=O)C1=C(c2ccccc2)c2ccccc2C1=O	x	x	0	x	-9%	9%	x
CCCCN(C(=O)CSCC(=O)Nc1cccc(C)c1)c1c(N)n(Cc2ccccc2)c(=O)[nH]c1=O	-7.0%	x	-14	-4	-2%	-80%[inhibitor]	x
CC(CC(=O)NCc1cccnc1)c1ccccc1 (stereo not given)	-0.3%	11%	-21	8	-9%	24%	-1.3
Cc1cccc(N2C(=O)C3C(c4ccccc4)OC4(C(=O)c5ccccc5C4=O)C3C2=O)c1 (stereo not given)	-1.4%	1%	-7	0	-1%	34%	2.7
COc1ccccc1CN(C(=O)Cc1cccs1)C(C(=O)NC1CCCC1)c1ccncc1 (stereo not given)	-3.6%	-12%	-12	-11	-12%	13%	2.4
COc1ccc(/C=C/C(=O)Nc2ccc(C)cc2)cc1S(=O)(=O)N1CCOCC1	-6.2%	25%	-16	0	-23%	-35%[inhibitor]	4.8
CCOC(=O)N1CCN(C(=O)c2ccc3c(c2)N=C(CC)c2cc(C)ccc2S3)CC1	0.8%	-7%	1	-2	u	-36%[inhibitor]	1.0
Cc1ccc(C)c(N(CC(=O)NCc2ccco2)C(=O)CNS(=O)(=O)c2ccc(F)cc2)c1	x	11%	-8	3	-6%	8%	x
Cc1nc2ncnn2c(C)c1Cc1c(Cl)cccc1Cl	-0.8%	3%	6	-12	12%	3%	-0.7
Cc1ccc(N2CC(C(=O)NCc3ccc(C)n3C)CC2=O)cc1 (stereo not given)	x	-10%	3	-15	11%	-3%[15.4 µM]	4.4
O=C(COC(=O)c1ccccc1NS(=O)(=O)c1cccs1)NCC12CC3CC(CC(C3)C1)C2	-24%	18%	11	21	-23%	-36%[inhibitor]	5.1
COc1ccc(N2CCN(CCC3Oc4cc([N+](=O)[O-])ccc4NC3=O)CC2)cc1 (stereo not given)	x	9%	-1	-5	-29%	-17%	3.2
COC(=O)c1ccc(NC(=O)c2cccc(NC(=O)c3ccccc3)c2)cc1	0.2%	-6%	-23	16	6%	-21%	-0.1
Cc1nc2ccc(S(=O)(=O)NCC(=O)Nc3cccc(F)c3)cc2s1	-1.2%	14%	-2	4	-5%	-109%[inhibitor]	4.3
CNC(=S)N(CCc1c(C)[nH]c2ccc(C)cc12)Cc1cc(OC)c(OC)c(OC)c1	-5.0%	1%	-1	4	-19%	6%	2.7
Cn1c(SCc2ccc([N+](=O)[O-])cc2)nc2c(c1=O)SCC2	-4.8%	-23%	-6	6	-11%	15%	-1.6
COc1ccc(CN2C(=O)c3ccccc3C2C(=O)NC2CCCCCC2)c(OC)c1 (stereo not given)	-2.5%&-1.0%	8%	-12	-6	-17%	-55%[inhibitor]	-3.6
CN1C(=O)/C(=C2/C=CC=CN2C)OC1=S	-2.8%	56µM*	-7	14	0%	3%	-0.9

Just D2 PAM, gsp antag and Menin MLL FP FL, for 2 of the compounds above:
| molecule | D2 PAM | gsp antag | Menin MLL FP FL |
| --- | --- | --- | --- |
| Cc1nc2ccc(S(=O)(=O)NCC(=O)Nc3cccc(F)c3)cc2s1 | -2 | -5% | 4.3 |
| O=c1ccc(-c2nc3ccccc3n2Cc2ccc(Cl)cc2)c[nH]1 | -4 | -18% | 2.1 |

(continued)
SMILES	ClpP mod	Sfp inh	D2 PAM	TRPV1 potentiator	gsp antag	gsp agonist	Menin MLL FP FL
COc1ccc(CNC(=O)CN(C)CC(=O)Nc2ccccc2Br)cc1	-3.3%	x	-5	x	-5%	-2%	x
CCOC(=O)c1[nH]c(=O)[nH]c1CSCCO	3.2%	7%	-7	-2	8%	6%	2.3
O=C(NCCCO)C(=O)NCc1ccncc1	-1.4%	10%	-9	-36	20%	-49%[inhibitor]	0.8
CCCSc1nc2c(c(=O)[nH]c(=O)n2C)n1Cc1ccccc1	0.3%	-14%	-7	-20	u	u	5.0

High-throughput results deposited in PubChem by National Center for Advancing Translational Sciences (NCATS).
